Screening results (PubChem)
PABP polyA inh = PABP-poly(A) binding inhibition; actives 1% (n = 290,000); AID 2014; PABP-poly(A) RNA binding, fluorescence polarization; P11940; inhibition, % at 35 µM;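 active means 50% or more with normal probe brightness, or confirmed in later tests; inconclusive means above 50% with abnormal brightness, or retests that disagree; inactive means below 50% or failed in later tests; about a fifth of its hits are not listed in these tables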;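 further: calls also rest on retests at 20 µM and on dose response follow-up; controls were probe without protein and protein plus probe with vehicle; some compounds called inactive have numbers as strong as hits; many hits fall short of the cut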
Target sequence (P11940 whole entry, looked up): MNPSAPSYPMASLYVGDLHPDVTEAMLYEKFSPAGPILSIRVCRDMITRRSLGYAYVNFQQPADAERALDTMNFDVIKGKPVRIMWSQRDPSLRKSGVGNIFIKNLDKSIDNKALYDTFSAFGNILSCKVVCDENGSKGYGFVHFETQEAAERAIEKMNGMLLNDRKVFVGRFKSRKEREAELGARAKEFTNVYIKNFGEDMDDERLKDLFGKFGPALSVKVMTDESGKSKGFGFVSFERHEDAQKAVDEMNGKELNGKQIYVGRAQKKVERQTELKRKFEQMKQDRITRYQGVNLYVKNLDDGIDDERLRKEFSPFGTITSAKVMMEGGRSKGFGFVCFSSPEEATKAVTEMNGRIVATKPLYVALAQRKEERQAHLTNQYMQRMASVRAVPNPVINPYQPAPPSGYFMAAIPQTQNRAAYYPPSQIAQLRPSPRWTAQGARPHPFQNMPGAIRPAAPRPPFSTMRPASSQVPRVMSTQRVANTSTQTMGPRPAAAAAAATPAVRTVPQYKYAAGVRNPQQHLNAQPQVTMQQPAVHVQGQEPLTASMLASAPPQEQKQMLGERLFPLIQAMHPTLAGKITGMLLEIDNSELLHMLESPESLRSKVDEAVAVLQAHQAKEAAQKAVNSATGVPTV
CSC inhib = cancer stem cell inhibition | cancer stem cell-like cells viability, luminescence | inhibition, % at 7.5 µM | actives 1.1% (n = 300,000);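 active means mean at 75% or more and at least half the replicates too; inconclusive means mean and replicates disagree; tested in HMLE shEcad cells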;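 further: 0% = median of negative and 100% = median of positive control wells; the first replicate is given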
HIV Env fusion = blocks HIV Env-driven cell-cell fusion | inhibition, % at 12.3 µM | HeLa-JRFL Env/CEM21 cell fusion, luciferase | actives 1.1% (n = 360,000) | AID 651610;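 active means mean replicate inhibition score of at least 50 and every replicate individually at or above 50; inconclusive means only one of the two criteria met; inactive means mean below 50 and not all replicates reaching 50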;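 further: 0% = plate neutral controls and 100% = maraviroc near 300 nM; one replicate is shown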
MT1-MMP act inh = blocks activation of human MT1-MMP; GFP/RFP ratio change, % at 20 µM; HT1080 RFP-PRO-GFP cells, GFP/RFP ratio fluorescence, overnight; percent of plate control window, DMSO zero; P50281; actives 0.061% (n = 360,000);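 active means GFP/RFP ratio change of at least 30% with cell ATP level not reduced by more than half and red fluorescence within 50% of control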; further: strong numbers were not always called active
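Assay system: RFP-PRO-GFP reporter HT1080 cells; read-out basis: GFP/RFP fluorescence ratio; benchmarks: DMSO wells and RFP-L50D-GFP cells; doses: 20 µM single dose, 1% DMSO; schedule: overnight cell settling, then overnight compound exposure, 37 °C, 5% CO2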
Yeast UUG start = alters start codon recognition fidelity in yeast. S. cerevisiae UUG-firefly luciferase reporter, luminescence/redox ratio. activity score, % at 18.7 µM. actives 0.13% (n = 350,000);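 active means replicate mean at a twofold rise or more, about +100% in these data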;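 further: firefly luciferase made from a UUG start codon reports start codon fidelity; reporter light over untreated wells divided by growth signal over untreated wells; some hits fall short of that in this replicate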
Rce1 inh = blocks yeast Ras-converting enzyme | actives 0.27% (n = 290,000) | Q03530 | yeast membranes, quenched prenylated peptide cleavage fluorescence | calls only;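 active means fall in fluorescence gain of 50% or more versus controls, with final raw signal at or below 3038400; inconclusive means same 50% fall but final raw signal above 3038400; inactive means fall in fluorescence gain under 50%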;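 further: plate controls were neutral control wells for no effect and wells lacking membranes for full effect; tested at 10 µM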
eIF4H inh = inhibitors of RNA binding by human eIF4H | Q15056 | AID 2012 | eIF4H fluorescence polarization binding assay | actives 0.94% (n = 290,000) | inhibition, % at 35 µM;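 active means 50% or more with normal probe brightness, or confirmed in later tests; inconclusive means above 50% with abnormal brightness, or retests that disagree; inactive means below 50% or failed in later tests; about a fifth of its hits are not listed in these tables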;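 further: calls also rest on retests at 20 µM and on dose response follow-up; 0% = protein and probe with vehicle and 100% = probe without protein; strong numbers were not always called active; many hits fall short of the cut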
eIF4H inh retest = second read-out of eIF4H inh, no call of its own (marks repeat the call); inhibition, %; compound at 20 µM; confirmation average;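 mean of two retest wells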
PABP polyA inh retest = second read-out of PABP polyA inh, no call of its own (marks repeat the call); inhibition, %; compound at 20 µM; confirmation repeats;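 mean of two retest wells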
MT1-MMP act inh RFP = recorded beside MT1-MMP act inh, whose call it bears; RFP signal change, %; measured here: RFP expression control read;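 0 = vehicle wells; hits needed this value within 50% of zero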
An asterisk follows results filed as active; i = inactive; ? = inconclusive; / = not tested or not shown. Not all compounds are listed; rates above refer to the full screens.

SMILES | PABP polyA inh | CSC inhib | HIV Env fusion | MT1-MMP act inh | MT1-MMP act inh RFP | Yeast UUG start | Rce1 inh | eIF4H inh | others
O=C(CSCc1cnn(-c2ccccc2)c1-n1cccc1)NCc1ccc2c(c1)OCO2 | 7 | / | / | 1 | 2 | -17 | i | 7
Cc1noc(C)c1COc1ccc(C(=O)N2CCN(S(=O)(=O)c3ccc(Cl)cc3)CC2)cc1 | / | -17 | -11 | -7 | -2 | / | i | /
Cc1nc(NCC2CCCO2)[nH]c(=O)c1CCC(C)C (configuration not stated) | 7 | -6 | / | 1 | -1 | -15 | i | -1
Cc1oc(-c2ccccc2F)nc1CN1CCC(C(=O)NCCC2=CCCCC2)CC1 | -1 | -6 | 90* | 11 | -3 | -14 | i | 0
COc1ccc(C(=O)N/N=C/c2sc(=O)n(Cc3cccc(C(=O)O)c3)c2Cl)cc1 | 17 | -18 | -137 | -3 | 2 | -20 | i | 7
O=c1ccn(Cc2ccc(F)cc2)c2ccnc(C(F)(F)F)c12 | -12 | 1 | 31 | -7 | -19 | / | i | -1
COc1ccc(CN(CC(=O)NC2CCCC2)C(=O)CN2C(=O)COc3ccccc32)cc1 | 12 | 2 | -8 | 2 | 5 | -16 | i | 6
Cc1nnc(Cc2ccco2)c2n[nH]c(C)c12 | / | / | ? | -7 | 3 | -19 | / | /
CN(C(=O)C1CCOC1)c1nnc(C2CCOC2)s1 (configuration not stated) | -8 | -1 | -13 | -7 | 1 | -4 | i | -11
CN1C2=C(C#N)C(c3ccccc3)(C(F)(F)F)NC(=O)N2c2ccccc21 (configuration not stated) | -7 | 2 | -33 | 3 | 5 | -8 | i | -2
C=CCN=C1N[C@@H](c2cccc(C(F)(F)F)c2)C(C(=O)OC)=C(C)N1CC | / | 9 | 10 | -4 | 6 | -3 | i | /
COc1ccccc1NC(=O)Cc1nc(=O)[nH]c(=O)[nH]1 | / | / | -15 | 0 | 2 | 11 | / | /
CCOC(=O)C1(P(=O)(c2ccc(Cl)cc2)c2ccc(Cl)cc2)CCC1 | -2 | -1 | / | -8 | 2 | 18 | i | 5
[2H]C([2H])(CCOS(N)(=O)=O)c1ccccc1 | 12 | -3 | -38 | -1 | -1 | -8 | i | -7
O=C1C2CC=C(Cl)CC2C(=O)N1c1ncn[nH]1 (configuration not stated) | 8 | -26 | -44 | 6 | -1 | -10 | i | 67 | eIF4H inh retest=-5;PABP polyA inh retest=9
CN1CCN(C(=O)C2CCCCC2C(=O)O)CC1 (configuration not stated) | -7 | -7 | -6 | -1 | 4 | -10 | i | -14
CCC(C(=O)OC)n1cnc2c(nnn2-c2ccc(C)cc2)c1=O (configuration not stated) | -5 | -3 | -26 | 0 | 5 | -20 | i | -2
Cc1ccc(-n2nnc(-c3ccnc4ccccc34)n2)cc1 | -14 | 0 | -270 | -5 | 3 | -15 | i | -17
CCOC(=O)c1c(NC(=O)c2ccc(S(=O)(=O)N3CCOCC3)cc2)sc2c1CC(C)(C)NC2(C)C | -22 | 12 | 30 | 0 | -5 | -6 | i | -5
O=C(c1cccc([N+](=O)[O-])c1)N1CCOCC1 | 0 | -8 | -4 | 3 | 3 | / | i | -7

A stretch from the list above, as a working copy:
SMILES | PABP polyA inh | CSC inhib | HIV Env fusion | MT1-MMP act inh | MT1-MMP act inh RFP | Yeast UUG start | Rce1 inh | eIF4H inh | others
CCOC(=O)C1(P(=O)(c2ccc(Cl)cc2)c2ccc(Cl)cc2)CCC1 | -2 | -1 | / | -8 | 2 | 18 | i | 5
[2H]C([2H])(CCOS(N)(=O)=O)c1ccccc1 | 12 | -3 | -38 | -1 | -1 | -8 | i | -7
O=C1C2CC=C(Cl)CC2C(=O)N1c1ncn[nH]1 (configuration not stated) | 8 | -26 | -44 | 6 | -1 | -10 | i | 67 | eIF4H inh retest=-5;PABP polyA inh retest=9

Carrying on:
SMILES | PABP polyA inh | CSC inhib | HIV Env fusion | MT1-MMP act inh | MT1-MMP act inh RFP | Yeast UUG start | Rce1 inh | eIF4H inh | others
COc1cccc(NC(=O)CN(C)C(=O)CSCC(=O)Nc2ccc(C)cc2)c1 | / | 8 | / | -3 | 1 | -8 | / | /
CC(=O)O[C@H]1CC[C@@]2(C)[C@@H](CC[C@H]3[C@@H]4CC[C@H](C(C)O)[C@@]4(C)CC(=O)[C@@H]32)C1 (some centres not stated) | / | 8 | 8 | 2 | -4 | 4 | i | /
Cc1ccc(CC(=O)NCC(c2ccco2)N(C)C)cc1C (configuration not stated) | 35 | -7 | 4 | -1 | 3 | / | i | 13
COc1ccc(OC)c2c1sc(=NC(=O)C1CC1)n2C | 6 | -8 | 7 | 13 | 1 | / | i | -4
O=C(/C=C/c1ccccc1Cl)Nc1ccc2c(c1)C(=O)NC2=O | -4 | 7 | 13 | 3 | 1 | -7 | i | -13
O=Cc1ccc(OCc2nnsc2Cl)cc1 | -6 | / | 4 | -3 | -2 | / | i | -3
CN1C(=O)CC(N2CCN(Cc3ccc(Cl)cc3)CC2)C1=O (configuration not stated) | -2 | 9 | 4 | -4 | 1 | -1 | i | -6
COc1ccc(OCCC(=O)OCC(=O)NCCC2=CCCCC2)cc1 | 16 | -10 | -10 | 3 | 5 | / | i | 1
CCOC(=O)C(NCc1ccccc1OC)(NC(=O)CC)C(F)(F)F (configuration not stated) | -10 | -13 | -31 | -1 | 6 | -19 | i | 6
CCC(/C=C1\Sc2ccc(OC)cc2N1CC)=C\c1sc2ccc(OC)cc2[n+]1CCCS(=O)(=O)[O-] | 4 | 15 | -5 | 66 | 67 | 3 | i | -6
Cc1ccc(CS(=O)(=O)CCC(=O)NCc2ccc(F)cc2)cc1 | -8 | 3 | -3 | -1 | 1 | / | i | -4
O=C(O)c1oc2ccccc2c1CSc1ccc(Cl)cc1 | -3 | 10 | 4 | 0 | 1 | / | i | 0
CCOC(=O)c1cccc2c(=O)c(C(=O)c3ccc(Cl)cc3)c(C(=O)OC)[nH]c12 | -2 | 0 | 3 | 1 | 2 | / | i | -1
COc1ccc(CCNc2ncnc3c2nnn3Cc2ccccc2)cc1 | 4 | -12 | 33 | 0 | -6 | 4 | i | 5
CCOc1ccc(C(=O)NC2CC3CCCC(C2)N3Cc2ccccc2)cc1 (configuration not stated) | -13 | -1 | -1 | 3 | 1 | -3 | i | -1
NC1=NC2(CCCCCC2)n2c(nc3ccccc32)N1 | -2 | -10 | 15 | -3 | -2 | -12 | i | -2
COc1cc(Cl)c(C)cc1NC(=O)c1ccc2c(c1)OCO2 | -7 | -2 | -16 | 0 | 1 | -14 | i | -2
CCn1c(/N=C/c2ccc(OC)cc2O)nc2ccccc21 | 13 | / | -2 | 1 | 1 | -15 | i | 4
C[C@H](NC(=O)C1CC(=O)N(c2ccc3c(c2)OCCO3)C1)C(=O)NC1CCCC1 (some centres not stated) | / | -3 | -1 | -1 | 2 | -3 | i | /
Cc1cccc(C)c1NC(=O)C(c1ccccc1)N1CCC2(CC1)OCCO2 (configuration not stated) | / | -10 | -191 | 1 | 2 | -10 | i | /

Some of these compounds in order of molecular weight, rising:
SMILES | PABP polyA inh | CSC inhib | HIV Env fusion | MT1-MMP act inh | MT1-MMP act inh RFP | Yeast UUG start | Rce1 inh | eIF4H inh | others
[2H]C([2H])(CCOS(N)(=O)=O)c1ccccc1 | 12 | -3 | -38 | -1 | -1 | -8 | i | -7
NC1=NC2(CCCCCC2)n2c(nc3ccccc32)N1 | -2 | -10 | 15 | -3 | -2 | -12 | i | -2
CCn1c(/N=C/c2ccc(OC)cc2O)nc2ccccc21 | 13 | / | -2 | 1 | 1 | -15 | i | 4
Cc1ccc(CC(=O)NCC(c2ccco2)N(C)C)cc1C (configuration not stated) | 35 | -7 | 4 | -1 | 3 | / | i | 13
COc1cc(Cl)c(C)cc1NC(=O)c1ccc2c(c1)OCO2 | -7 | -2 | -16 | 0 | 1 | -14 | i | -2
O=C(/C=C/c1ccccc1Cl)Nc1ccc2c(c1)C(=O)NC2=O | -4 | 7 | 13 | 3 | 1 | -7 | i | -13

(more compounds)
SMILES | PABP polyA inh | CSC inhib | HIV Env fusion | MT1-MMP act inh | MT1-MMP act inh RFP | Yeast UUG start | Rce1 inh | eIF4H inh | others
O=C(Nc1cc(Cl)cc(Cl)c1)N1CCCN(Cc2ccccc2)CC1 | -7 | 9 | 7 | 3 | -2 | -10 | i | -9
Cn1c(=O)c2c(ncn2CC(=O)N2CCN(C(=O)c3ccco3)CC2)n(C)c1=O | -8 | 6 | -6 | 2 | 6 | / | i | 4
O=C(NC(=S)N1CCN(C/C=C/c2ccccc2)CC1)c1c(F)cccc1F | -1 | -8 | 13 | 3 | 1 | -8 | i | 10
COc1ccccc1N1CCN(C(=O)COc2cccc3ccccc23)CC1 | -16 | 4 | 14 | 0 | 3 | 47 | / | -9
C[C@H](CO)N1C[C@H](C)[C@@H](CN(C)S(=O)(=O)c2ccccc2)Oc2c(NS(=O)(=O)c3ccc(F)cc3)cccc2C1=O | / | / | -56 | 0 | 2 | 11 | / | /
Cn1nc(C(C)(C)C)cc1C(=O)N1CCCCC1c1cc(C(=O)NCc2ccc(F)cc2)no1 (configuration not stated) | / | / | 24 | -7 | -25 | 1 | / | /
CCOCCc1nn2c(=O)cc(CSCC(=O)Nc3ccccc3)nc2s1 | / | 3 | -20 | 0 | 6 | -16 | i | /
CC1CCCCC12NC(=O)N(CC(=O)OCC(=O)NC(=O)c1ccccc1)C2=O (configuration not stated) | / | 10 | / | 0 | 2 | -2 | / | /
COc1ccc(CCNC(=O)COC(=O)c2ccc(Br)o2)cc1 | -1 | 0 | -23 | 1 | 4 | -12 | i | -8
CC1(C)NC(=O)N(CC(O)CN(c2ccccc2)S(=O)(=O)c2ccccc2)C1=O (configuration not stated) | 2 | -9 | 9 | 1 | 2 | -6 | / | 1
O=C1OC(Nc2ccc(Br)cn2)c2ccccc21 (configuration not stated) | 7 | / | -17 | 0 | 4 | -18 | / | 28
Cc1cn(C2C=CC(CO)O2)c(=O)[nH]c1=O (configuration not stated) | -2 | 6 | / | / | / | -11 | i | -3
Cc1ccc(NC(=O)c2ccc(CSc3nnc(C)s3)cc2)c(C)c1 | 7 | -6 | / | 0 | -9 | -2 | i | -2
Cc1cc(C)c2oc(C(=O)Nc3ccc(S(=O)(=O)N4CCCC(C)C4)cc3)cc(=O)c2c1 (configuration not stated) | 1 | / | 12 | 5 | -7 | / | i | 5
O=C(NCCO)c1nc2ccccc2s1 | 4 | -9 | / | -3 | -1 | / | i | 0
COc1ccc(NC(=O)Nc2ccccc2OC)cc1 | -10 | -20 | -60 | 6 | -1 | -13 | i | 0
CCOC(=O)c1[nH]c(C(=O)O)c(CCN(CC)CC)c1C | -1 | -19 | / | 11 | 1 | -8 | i | -8
NC(=O)NC(=O)COC(=O)CCCc1c[nH]c2ccccc12 | 1 | 2 | / | -2 | 7 | / | i | 7
O=C(Cc1ccc(F)cc1)N1CCN(c2ccc(F)cc2)CC1 | 12 | -12 | -84 | 3 | 3 | 9 | i | -9
N#Cc1ccccc1-n1c(N)c(C(=O)N2CCCC2)sc1=S | 10 | 18 | 59* | 6 | -1 | -14 | i | 1
